Source: PubChem
Mtb bLac sens – beta-lactam sensitization of Mtb H37Rv, H37Rv | M. tuberculosis H37Rv growth with meropenem, percent inhibition; hits of this screen are not shown here | inhibition, % at 25 µM | 330,000 tested, 0.27% active | AID 434955, 2010;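 active means about 74% or more and at least 40 points above the plate without the antibiotic, then above 30% in a dose series; inconclusive means first-round hits that could not be retested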;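 further: growth measured after seven days incubation then overnight dye step; 0% = bacteria only wells and 100% = bacteria with antibiotic; twin plates without the antibiotic show which effects depend on it; some results filed as inactive read as strong as hits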
RecA splice inh – Mtb RecA intein splicing inhibitors, primary screen, biochemical, fluorescence, HTS; cell-free RecA intein splicing; 290,000 tested, 0.75% active; inhibition, %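 (about 9 µM by stock and volumes)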; in the data active means inhibition above about 30%; inconclusive means no clear call, values can overlap the other calls;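 further: 0% = vehicle wells and 100% = reference inhibitor control wells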
Target sequence (P9WHJ3 whole entry, looked up, canonical isoform): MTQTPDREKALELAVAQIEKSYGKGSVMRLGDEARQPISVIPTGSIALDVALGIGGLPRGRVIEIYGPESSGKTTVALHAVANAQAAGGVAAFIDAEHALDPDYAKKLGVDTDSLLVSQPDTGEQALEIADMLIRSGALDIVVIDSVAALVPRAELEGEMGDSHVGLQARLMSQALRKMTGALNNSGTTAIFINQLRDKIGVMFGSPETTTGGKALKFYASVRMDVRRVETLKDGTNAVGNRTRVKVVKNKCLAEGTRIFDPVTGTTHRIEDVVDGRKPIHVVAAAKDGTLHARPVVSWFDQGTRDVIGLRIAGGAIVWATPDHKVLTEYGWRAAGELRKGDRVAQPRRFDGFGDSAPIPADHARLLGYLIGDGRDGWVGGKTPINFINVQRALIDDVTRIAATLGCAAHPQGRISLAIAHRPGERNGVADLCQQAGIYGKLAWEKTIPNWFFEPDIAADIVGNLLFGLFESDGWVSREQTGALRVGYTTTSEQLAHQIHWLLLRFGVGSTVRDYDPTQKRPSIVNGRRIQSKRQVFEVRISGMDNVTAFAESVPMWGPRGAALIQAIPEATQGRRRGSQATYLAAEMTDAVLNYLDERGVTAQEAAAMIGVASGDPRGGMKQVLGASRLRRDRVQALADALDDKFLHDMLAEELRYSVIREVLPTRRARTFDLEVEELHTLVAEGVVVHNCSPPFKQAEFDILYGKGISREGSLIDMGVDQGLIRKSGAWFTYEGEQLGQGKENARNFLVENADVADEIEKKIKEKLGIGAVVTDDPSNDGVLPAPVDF
Arbovirus inh – antivirals against arbovirus infection, primary screen, cell-based, full library, 10K replicate subset | inhibition, % at 10 µM | AID 1251, 2008 | 200,000 tested, 0.37% active | arbovirus infection cell-based antiviral screen;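 active means inhibition from about 30%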;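 further: bluetongue infection of BSR cells; cell survival read as ATP light after 72 h; 0% = infected wells without compound and 100% = uninfected wells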
Mtb growth – M. tuberculosis H37Rv growth inhibitors, H37Rv strain (AID 1626) | inhibition, % at 10 µM; hits with a dose series show IC50 in µM | 220,000 tested, 0.95% active | M. tuberculosis H37Rv growth inhibition; higher % means a stronger effect;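 active means confirmed in a dose series; inconclusive means inhibition above 80% but not taken into the dose series; inactive means below 80% or under 30% at every dose of the series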;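 further: bacteria incubated seven days before Alamar blue readout; 0% = bacteria only wells and 100% = bacteria with antibiotic wells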
YopH inh – YopH tyrosine phosphatase inhibitors, primary screen, biochemical, fluorescence Ex485/Em525; YopH tyrosine phosphatase [Yersinia enterocolitica]; inhibition, %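 (about 10 µM by stock and volumes)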; 140,000 tested, 0.16% active; AID 898, 2007;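 active means inhibition of 50% or more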;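 further: controls were vehicle for no effect and minimum signal wells for full effect; inactives centre near -20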
Arbovirus inh repeat – recorded beside Arbovirus inh, whose call it bears; inhibition, %; measured here: 10K subset replicate screen; many hits read low in the repeat;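 first of two repeat runs on a subset; 0% = infected and 100% = uninfected wells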
* = called active by the depositor; ? = inconclusive; / = no result given. These rows are one share of the data, so the mix of outcomes need not match the whole.

SMILES	Mtb bLac sens	RecA splice inh	Arbovirus inh	Mtb growth	YopH inh	others
CSc1ccc(CN2CCN(C(=O)c3ccncc3)CC2)cc1	-5	1.0	0	0%	/
COc1ccccc1NC(=O)Nc1nnc(-c2ccco2)s1	15	3.2	13	/	-25
Cc1ccccc1NC(=O)N1CCCC(c2nc(-c3ccc(F)cc3)no2)C1 (stereo not drawn)	-13	1.8	5	7%	2
CCCc1nn(C)c2c1C(c1cccnc1)C(C#N)=C(N)O2 (stereo not drawn)	-9	60*	4	4%	-17
COc1ccc(NS(=O)(=O)c2csc(C(=O)Nc3ccccc3)c2)cc1	-6	2.8	20	0%	/
O=C(O)c1ccc(S(=O)(=O)N2CCC(c3nc(-c4ccccc4Cl)no3)CC2)cc1	-8	-1.3	7	-9%	-25
O=c1ccc2cc(S(=O)(=O)N3CCOCC3)ccc2o1	-3	0.3	-3	-7%	-15
CC(C)(C)c1ccc(C(=O)NCCN2CCCC2)cc1	-5	0.9	-11	0%	/
NC(=S)N/N=C/c1ccc(-c2ccc([N+](=O)[O-])cc2)o1	94	-4.8	1	74%	/
CCC(c1nnnn1C(C)(C)C)N(CCOC)Cc1cc2cccc(C)c2n2nnnc12 (stereo not drawn)	/	/	-1	-3%	-42
CCOC(=O)C1=C(CN2CCc3ccccc32)NC(=O)NC1c1cccc([N+](=O)[O-])c1 (stereo not drawn)	7	7.3	-14	20%	-11
O=C1CN(C(=O)/C=C/c2ccc(Cl)cc2Cl)CCN1	3	1.0	0	1%	/
CCC(=O)Nc1cc2c(cc1C(=O)c1ccccc1)OCCO2	-11	-1.0	-1	6%	-48
COc1ccc(C2CCCN2C(=S)Nc2cccc(Cl)c2C)cc1OC (stereo not drawn)	41	-3.4	-6	5%	/
O=C(COc1ccc(Br)cc1Cl)N1CCN(c2ccccn2)CC1	63	3.4	/	/	/
COc1ccc(-c2csc(NC(=O)CN3C(=O)C4CCCCC4C3=O)n2)cc1OC (stereo not drawn)	-4	6.4	/	/	/
CCCSc1cc(Cl)nc(N)n1	-11	0.9	/	4%	/
COc1ccc(C(=O)NNC2CC(=O)N(Cc3ccccc3)C2=O)cc1OC (stereo not drawn)	2	-1.3	4	2%	-29
CN(C)S(=O)(=O)c1ccc(C(=O)Nc2ccc3ncccc3c2)cc1	-11	0.3	/	/	/
COC(=O)c1ccc(C2/C(=C(/O)c3ccc4c(c3)CC(C)O4)C(=O)C(=O)N2Cc2cccnc2)cc1 (stereo not drawn)	-2	-2.3	/	/	/
Cc1ccc(NC(=O)CNC(C)c2ccccc2)cc1 (stereo not drawn)	-1	-0.7	/	/	/
CC1(C)CC(CCC(=O)Nc2ccc(S(N)(=O)=O)cc2)C(=O)O1 (stereo not drawn)	-9	-0.5	9	-4%	-16
O=C(COc1ccc(F)cc1)N(Cc1ccc(Cl)cc1)C1CCS(=O)(=O)C1 (stereo not drawn)	1	0.9	/	/	/
NC(=O)c1ccc(-n2nnnc2Oc2ccccc2)cc1	-3	-0.6	2	1%	-39
O=C(COc1ccccc1[N+](=O)[O-])N1CCC(Cc2ccccc2)CC1	0	2.4	-1	-3%	/
COc1nccnc1NS(=O)(=O)c1ccc(NC(=S)NC(=O)c2cccnc2)cc1	3	-1.7	/	9%	/
O=C1CSC(=Nc2ccc(O)cc2)N1	0	0.6	/	/	/
COc1cc(CO)cc(Br)c1OCC(=O)N1CCCCC1	?	-0.2	0	-10%	-19
O=C(Oc1ccc(NC2=NS(=O)(=O)c3ccccc32)cc1)c1cccnc1	-6	-3.1	10	-3%	/
O=C(NCc1ccc(Cl)cc1)c1cnn2ccccc12	-3	-0.4	-25	15%	-36
COc1ccc(CNC(=O)c2cccnc2)cc1	3	0.3	/	/	/
CCOC(=O)N1CCC(NC(=O)c2ccc(CS(=O)c3cccc(Cl)c3)o2)CC1 (stereo not drawn)	-2	-0.9	/	/	/
O=C(NCc1ccon1)C1CCC(=O)N(Cc2cccc(C(F)(F)F)c2)C1 (stereo not drawn)	-4	1.4	/	/	/
CC(=O)N1CCC(=NNc2ncc(C(F)(F)F)cc2Cl)CC1	0	/	-3	1%	/
COc1ccc(CCNC(=O)Cn2c(=O)n(CC3CCCO3)c(=O)c3ccccc32)cc1OC (stereo not drawn)	18	1.1	24	-9%	/
Cn1c(CNC2CCCCC2)nc2ccccc21	7	0.7	5	-22%	/
CC(C)NC(=O)N(Cc1ccc(Cl)cc1)Cc1cccs1	-13	6.9	/	-4%	/
O=C(Cc1cccc2ccccc12)Nc1nnc(-c2cccc([N+](=O)[O-])c2)s1	-1	-17	-10	11%	-25
COc1ccc(C(=O)N2CCN(S(=O)(=O)c3ccc(Cl)cc3)CC2)cc1OC	?	-1.4	7	-2%	-3
COc1ccc(-c2nc(CN3CCN(c4ncccn4)CC3)c(C)o2)cc1C	-2	3.2	3	-2%	/
C/C(=N/O)c1no[n+]([O-])c1/C(C)=N\O	4	1.2	/	-15%	/
COC(=O)c1cc(=O)nc2sc(-c3ccccc3)nn12	3	0.5	-1	-2%	-16
Cc1ccc(C)c(N/N=C2\CCCNC2=O)c1	8	-2.0	-9	3%	-19
COc1cccc(N2CCN(C(=O)CN(c3cc(C)cc(C)c3)S(=O)(=O)c3c(C)noc3C)CC2)c1	-1	2.8	/	/	/
O=C(Nc1ccc(S(=O)(=O)Nc2ncccn2)cc1)c1nn(Cc2ccccc2)c(=O)c2ccccc12	0	4.8	/	4%	/

A draw from above in order of molar mass, largest number first.
SMILES	Mtb bLac sens	RecA splice inh	Arbovirus inh	Mtb growth	YopH inh	others
COc1ccc(CCNC(=O)Cn2c(=O)n(CC3CCCO3)c(=O)c3ccccc32)cc1OC (stereo not drawn)	18	1.1	24	-9%	/
O=C(Cc1cccc2ccccc12)Nc1nnc(-c2cccc([N+](=O)[O-])c2)s1	-1	-17	-10	11%	-25
CC(=O)N1CCC(=NNc2ncc(C(F)(F)F)cc2Cl)CC1	0	/	-3	1%	/
C/C(=N/O)c1no[n+]([O-])c1/C(C)=N\O	4	1.2	/	-15%	/

Next section:
SMILES	Mtb bLac sens	RecA splice inh	Arbovirus inh	Mtb growth	YopH inh	others
COc1ccc(O)c(/C=N/NC(=O)CCC(=O)Nc2cccc(C)c2)c1	4	-15	/	/	/
CC1(C2(O)CC(c3ccccc3)ON2)CCCCC1 (stereo not drawn)	23	-0.4	-3	1%	11
O=C(CCc1ccccc1)Nc1nc2n(n1)C(c1ccccc1)CC(=O)N2 (stereo not drawn)	2	/	-3	-1%	-40
CCOc1ccc(C(C(=O)NC2CCCC2)N(Cc2ccccc2)C(=O)c2nsc(Cl)c2Cl)cc1 (stereo not drawn)	25	17	-31	17%	-27
Cc1ccc2cccc(OCC(=O)c3cc(C)n(Cc4ccco4)c3C)c2n1	0	7.0	-1	6%	/
COc1cccc(-c2cc(C(=O)Nc3ccc([N+](=O)[O-])cn3)c3ccccc3n2)c1	-6	0.2	7	-10%	-41
CN(C)c1ccc(C(=S)N2CCN(S(=O)(=O)c3ccccc3)CC2)cc1	-6	1.3	/	/	/
Cc1ccsc1C(=O)C1CCCN(Cc2ccc(-n3cccn3)cc2)C1 (stereo not drawn)	-10	4.3	-21	-2%	/
COc1ccc(C/C(N)=N/n2cnnc2)cc1Cl	-2	-0.8	2	-4%	10	Arbovirus inh repeat=6
O=C(CCNC(=O)c1ccco1)Nc1ccc(N2CCOCC2)cc1	2	-3.2	-7	-7%	/
NNc1n[nH]c(=S)n1N	-1	78*	/	-6%	/
CCN1CCN(C(=O)C2CCCN(c3ncnc4c3nc3n4CCCCC3)C2)CC1 (stereo not drawn)	-3	-0.6	/	/	/
CCCCN(C(=O)c1ccc(OC(F)(F)F)cc1)c1c(N)n(CCC)c(=O)[nH]c1=O	-7	2.5	27	-5%	/
O=C(CSc1nc2c(c(=O)[nH]1)CCC2)Nc1ccc(F)cc1	57	2.2	/	/	/
CC(CCc1ccccc1)NC(=O)CN1CCN(Cc2ccc(Cl)cc2)C1=O (stereo not drawn)	-6	2.1	-8	2%	-30

Of the compounds above, three contain a CF3 group:
SMILES	Mtb bLac sens	RecA splice inh	Arbovirus inh	Mtb growth	YopH inh	others
O=C(NCc1ccon1)C1CCC(=O)N(Cc2cccc(C(F)(F)F)c2)C1 (stereo not drawn)	-4	1.4	/	/	/
CC(=O)N1CCC(=NNc2ncc(C(F)(F)F)cc2Cl)CC1	0	/	-3	1%	/
CCCCN(C(=O)c1ccc(OC(F)(F)F)cc1)c1c(N)n(CCC)c(=O)[nH]c1=O	-7	2.5	27	-5%	/

New compounds follow
SMILES	Mtb bLac sens	RecA splice inh	Arbovirus inh	Mtb growth	YopH inh	others
COc1ccc(S(=O)(=O)Nc2ccccc2C(=O)Nc2nc(-c3ccc(F)cc3)cs2)cc1OC	-2	6.5	-8	-2%	-47
N#Cc1ccc(-n2nccc2-c2cnc3n(c2=O)CCS3)cc1	-1	-2.2	9	8%	-11
COc1ccc(NC(=O)N2CCCc3ccccc32)cc1OC	9	-0.1	/	/	/
CNC(=S)Nc1cccc(C(C)=O)c1	-2	-2.0	15	-4%	/
O=C(NCCO)c1ccc2[nH]c3c(c2c1)CCCC3	-1	-11	-3	-7%	2	Arbovirus inh repeat=1
O=C1Nc2cc(C(=O)N3CCc4ccccc4C3)ccc2S/C1=C\c1ccccc1	5	-3.4	-15	28%	-3
CCOCCn1c(N(C)Cc2ccccc2)nc2c1c(=O)[nH]c(=O)n2C	-7	-3.1	-3	-10%	1	Arbovirus inh repeat=1
O=C(CSCc1ccccc1)NC1CCSC1=O (stereo not drawn)	-6	0.2	-3	-14%	-22
CC(=O)OCC1=C(C(=O)O)N2C(=O)C(NC(=O)C(C)Cn3nc(C)c(Cl)c3C)C2SC1 (stereo not drawn)	18	-3.0	4	0%	/
Cc1ccc(NC(=O)NCc2ccc3[nH]c(C)cc3c2)cc1	-2	4.9	-10	7%	/
CC(=O)NC(Cc1cccc(F)c1)C(=O)NC1CCN(C(=O)c2ccc(C)cc2)CC1 (stereo not drawn)	-5	11	-2	1%	/
Cc1cc(C)n(CCC(=O)N2CCc3ccccc32)n1	-1	-3.1	/	/	/
CCC(C)(C)NS(=O)(=O)c1cc(CN2C(=O)c3cccnc3C2=O)ccc1OC	0	-0.9	/	/	/
C=CCn1cc(/C=C/c2cc[n+](C)cc2)c2ccccc21	2	7.9	/	/	/
Cc1ccc(NC(=O)c2ccc(CN3CCc4ccccc4C3)cc2)cc1	8	2.7	-8	/	-40
O=C(Nc1ccc(S(=O)(=O)Nc2ncccn2)cc1)C1=COCCO1	0	-2.4	/	/	/
O=C(N/N=C/c1ccco1)C1CC1c1ccccc1 (stereo not drawn)	-1	0.4	-3	6%	-8
CCOC(=O)C1=C(C)Nc2nc(C)nn2C1c1ccc(OC)c(OC)c1 (stereo not drawn)	1	1.3	0	/	-34	Arbovirus inh repeat=6
Cc1ccc(-c2cc(C(F)F)n3ncc(C(=O)N4CCN5CCCC5C4)c3n2)cc1 (stereo not drawn)	-1	-4.2	3	-4%	-4
CCC(C(=O)OC)n1cnc2c(nnn2-c2cccc(OC)c2)c1=O (stereo not drawn)	-12	-0.8	/	/	/
COc1ccccc1-n1c([S-])c(C(=O)Nc2ccccc2C(F)(F)F)[n+]2ccc(C(=O)NCCO)cc12	-7	-8.7	8	4%	/
CCn1cc(/C=C(\NC(=O)c2ccccc2)C(=O)NCCCN2CCOCC2)c2ccccc21	-4	-4.6	/	/	/
CCOCCn1c(SCc2c(F)cccc2Cl)nc2c1c(=O)[nH]c(=O)n2C	8	-1.5	-1	-10%	0
O=C1Nc2ccc([N+](=O)[O-])cc2C1(O)N1CCCCCC1 (stereo not drawn)	-1	-0.4	-2	-14%	17
COCCCNC(=O)CN(CCc1ccccc1)S(=O)(=O)c1ccccc1	-4	-0.5	22	2%	/
Cc1sc(NC(=O)c2ccco2)c(C(c2cccnc2)N2CCC(C)CC2)c1C (stereo not drawn)	5	/	-21	-2%	-19
COc1ccc(C(CC(=O)N2CCCC2)C(C)C)cc1 (stereo not drawn)	-6	-1.3	/	/	/
COc1ccccc1Nc1nc(C)nc2c1oc1ccccc12	0	1.0	/	/	/
O=C(Nc1ccc(C(=O)O)cc1)/C(=C\c1ccccc1)NC(=O)c1ccccc1	-5	0.3	/	/	/
O=C(CN1CCCCC1)c1ccc(OC(F)F)cc1	-2	1.7	-2	-6%	-7
Cc1ccccc1-n1nc2c(c1NC(=O)c1cccc(F)c1)CS(=O)C2 (stereo not drawn)	0	-3.6	5	0%	-22	Arbovirus inh repeat=7

Two entries picked at random from the list so far, as already listed:
SMILES	Mtb bLac sens	RecA splice inh	Arbovirus inh	Mtb growth	YopH inh	others
COCCCNC(=O)CN(CCc1ccccc1)S(=O)(=O)c1ccccc1	-4	-0.5	22	2%	/
O=C(N/N=C/c1ccco1)C1CC1c1ccccc1 (stereo not drawn)	-1	0.4	-3	6%	-8
